Menin MLL FP FL = menin-MLL binding inhibition, fluorescein peptide | Fluorescence polarization, fluorescein-MLL peptide displacement from menin | FP activity change, % at 61.4 µM | 290,000 tested, under 10 active; inconclusive = falling polarisation curve, or a change in total fluorescence; inactive = total fluorescence flat and polarisation flat or rising; no compound was filed as active; the % refers to the polarisation; negative = inhibition;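 further: % of control where 0% means no effect; inhibitors lower the polarisation; unlabelled MLL peptide was the positive control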
gsp antag = antagonists of gsp mutant (McCune-Albright syndrome). gsp-mutant cells, cAMP HTRF, 30 min; control for the full effect not named in the record. Potency, µM (series often up to 76.9 µM), without a hit: at the highest dose activity change, negative = inhibition, most hits filed as inhibitors. 340,000 compounds, 0.4% hits. AID 624288; active = falling curve of any shape with a large fitted effect; inconclusive = falling curve, mostly with a smaller effect; inactive = flat or rising curve; cell line not stated here;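 further: intracellular cAMP measured with PDE inhibitor Ro 20-1724 present during compound exposure; potency means the concentration at half of the fitted maximal effect; on the % scale 0 is the no-effect control and ±100 the full control effect; nearly all actives have a fitted effect of over 65% in size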
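Cells in G418 medium, seeded 16-24 h, 37C; buffer exchange to DPBS + 1 mM CaCl2, 0.5 mM MgCl2, 0.05% BSA; cpds in DMSO + […] (300 uM stock), 30 min 37C; HTRF cAMP detection.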
gsp agonist = gsp mutant agonism. 340,000 compounds, 0.13% hits. Potency, µM (doses to about 76.9 µM), inactives show at the top dose activation (cAMP increase), usual class: activators. gsp mutant cells, cAMP HTRF, 30 min; control for the full effect not named in the record; active = well fitted activation curve with a large enough effect; inconclusive = small, poorly fitted or top-dose-only effect, or another doubt; inactive = no such curve, though single readings can be large or run the other way; cell line not stated here;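 further: phosphodiesterase inhibitor Ro 20-1724 added with compounds to block cAMP breakdown; potency means the concentration at half of the fitted maximal effect; nearly all actives have a fitted effect of over 60% in size; about a fifth of the inactives were tested at one dose only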
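Cells stably selected in G418 were plated at 2000/well, grown 16-24 hr, then given compounds in DMSO with the PDE inhibitor […] (300 uM solution added) for 30 min at 37C; cAMP was read by HTRF.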
TRPML1 agonist = agonists of human TRPML1 channel; Q9GZU1; 410,000 compounds, 0.12% hits; TRPML1-expressing cells, Ca2+ dye fluorescence, FDSS; host cell line not named in the record; reference of the full effect not given here; activation, % (test concentration not listed); AID 624414; in the data active = activation above about 50%; inconclusive = about 30% to 50%; inactive = below about 30%; further: 0% is about no effect; the text of the record puts the active cut at 80%
Target sequence (Q9GZU1 whole entry, looked up): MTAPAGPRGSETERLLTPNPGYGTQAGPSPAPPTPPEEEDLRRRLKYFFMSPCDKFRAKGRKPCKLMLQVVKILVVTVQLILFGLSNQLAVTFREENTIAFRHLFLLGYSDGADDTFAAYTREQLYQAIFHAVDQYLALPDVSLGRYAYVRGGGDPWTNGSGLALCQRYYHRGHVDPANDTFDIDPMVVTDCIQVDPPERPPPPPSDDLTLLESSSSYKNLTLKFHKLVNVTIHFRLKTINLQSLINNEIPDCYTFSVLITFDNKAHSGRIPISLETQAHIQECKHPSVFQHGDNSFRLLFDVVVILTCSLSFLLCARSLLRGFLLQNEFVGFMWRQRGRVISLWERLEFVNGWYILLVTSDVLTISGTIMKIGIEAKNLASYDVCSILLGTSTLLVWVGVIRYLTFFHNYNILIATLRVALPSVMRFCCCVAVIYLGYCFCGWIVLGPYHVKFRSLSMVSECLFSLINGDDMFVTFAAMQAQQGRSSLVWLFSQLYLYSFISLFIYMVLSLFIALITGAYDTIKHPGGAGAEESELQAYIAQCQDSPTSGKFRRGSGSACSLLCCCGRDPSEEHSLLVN
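Cells: TRPML1-DL, 1X Tet inducer, ~16 h at 37 degrees C/5% CO2. Dye: ABD Ca8 no-wash + quencher, 45-90 min RT. Read: 10 s baseline, compound add, 110 s agonist phase; 54-4 EC80 (4uM final), 110 s antagonist phase.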
TRPML1 blocker = inhibitors of human TRPML1 channel. Q9GZU1. TRPML1-inducible cells, Ca2+ dye fluorescence, FDSS; active compounds read low; inhibition of EC80 agonist-evoked calcium signal. activity change, negative = inhibition, % (no concentration beside the values). 390,000 compounds, 0.02% hits. AID 624415; in the data active means activity change below about -50%; inconclusive means about -30% to -50%; inactive means above about -30%;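 further: stimulus is agonist 54-4 at its EC80 concentration; on the % scale 0 is the no-effect control and ±100 the full control effect; compound concentration not given in the record; the text of the record puts the active cut at -80%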
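Calcium fluorescence in TRPML1-DL cells induced overnight with Tet: a 110 s read after compound pin addition, then a 110 s antagonist read after challenge with 54-4 at 4 uM final (EC80).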
ClpP mod = qHTS Assay for Activators of ClpP. Potency, µM (series often up to 57.5 µM), for the others: at the top dose activity change, negative = active. ATP-dependent Clp protease proteolytic subunit (Bacillus subtilis (strain 168)), P80244. purified B. subtilis ClpP, FRET peptide cleavage, 20 min. 340,000 compounds, 1.9% hits. AID 651965, 2013; active = well fitted falling curve with a large enough effect; inconclusive = small, poorly fitted or top-dose-only effect; inactive = no such curve, though single readings can be large or run the other way; further: potency means the concentration at half of the fitted maximal effect; the source files actives as falling curves though it sought activators and does not explain the sign; nearly all actives have a fitted effect of over 65% in size; many hits overshoot -100%
Target sequence (P80244 whole entry, looked up): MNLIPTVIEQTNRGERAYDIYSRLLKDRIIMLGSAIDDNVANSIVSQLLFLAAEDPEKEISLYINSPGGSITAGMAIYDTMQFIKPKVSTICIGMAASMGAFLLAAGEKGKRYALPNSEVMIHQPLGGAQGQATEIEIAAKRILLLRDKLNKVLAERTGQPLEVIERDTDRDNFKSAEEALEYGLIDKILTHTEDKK
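Purified B. subtilis ClpP, 10 microg/mL final in Tris/HCl pH8 with KCl, BSA, glycerol and Tween-20, cleaved an Abz/nitrotyrosine-quenched decapeptide. Fluorescence (ex 320, em 430) was read at 0 and 20 min at room temperature. Delta was normalized to 5.8 microM ADEP and DMSO/no-enzyme controls.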
Numbers without * were called inactive; ? = inconclusive; . = no result given; & = joins results of further samples; [ ] = another dose, or the depositor's remark.

Codes – A = Menin MLL FP FL; B = gsp antag; C = gsp agonist; D = TRPML1 agonist; E = TRPML1 blocker; F = ClpP mod
CN(C)c1ccc(NC(=O)CN2CCN(CC(=O)Nc3ccc(Br)cc3)CC2)cc1
  A: . | B: . | C: . | D: -0.8 | E: -5 | F: 0.6%

N#Cc1sc(C(N)=O)c(-c2ccccc2)c1-c1ccccc1
  A: 4.6 | B: 2% | C: 7% | D: 1.2 | E: -4 | F: .

O=C1NC(=O)/C(=C/c2ccccc2OCc2ccccc2)S1
  A: -2.6 | B: -19% | C: -17%[15.4 µM] | D: -0.6 | E: 27 | F: .

CCCSc1ccc(-c2nn(-c3ccccc3)cc2/C=C(/C#N)C(=O)N2CCOCC2)cc1
  A: 4.1 | B: -3% | C: 1% | D: 2.5 | E: 11 | F: ?

CCc1n[nH]c(=S)n1/N=C/c1cc(Br)c(O)c(OC)c1
  A: -1.4 | B: -10% | C: 21% | D: -0.5 | E: 20 | F: -4.5%

CCOC(=O)c1c(NC(=O)c2ccccc2Cl)sc2c1CCCC2
  A: . | B: . | C: . | D: 2.0 | E: 9 | F: ?

Cc1cc(OC(C)C(=O)NCc2ccccn2)c2c(C)c(Cc3ccccc3)c(=O)oc2c1 (stereo unspecified)
  A: 3.3 | B: -16% | C: 14% | D: 0.1 | E: 8 | F: 3.6%

CCOC(=O)c1c(C)[nH]c(C(=O)CSc2nnc(Nc3ccccc3F)s2)c1C
  A: 10 | B: 2% | C: -5% | D: 0.8 | E: -7 | F: -1.5%

O=S(=O)(O)c1ccc(N2N=C(c3ccccc3)CC2c2ccccc2)cc1 (stereo unspecified)
  A: 2.3 | B: 6% | C: ? | D: 4.7 | E: 13 | F: 3.2%

Cc1cc(N)ccc1NC(=O)CN1CCOCC1
  A: -0.4 | B: -3% | C: -12% | D: 0.4 | E: -4 | F: .

CCOC(=O)C1CCN(C(=O)CSc2ccc(Cl)cc2)CC1
  A: 3.2 | B: -2% | C: 11% | D: -0.9 | E: 13 | F: -1.1%

CC1(C)CC(=O)c2cc(N=C/C(C(=O)c3ccccc3)=C(\O)c3ccccc3)c(=O)oc2C1
  A: 6.1 | B: -7% | C: -41%[inhibitor] | D: 1.6 | E: -17 | F: 0.6%

CCOC(=O)Nc1nnc(-c2cccc(OC)c2)s1
  A: 2.9 | B: -3% | C: -30% | D: -0.8 | E: 13 | F: 6.7%

ON/C=N/C(=S)Nc1ncc(C(F)(F)F)cc1Cl
  A: -1.2 | B: -6% | C: -4% | D: -1.2 | E: -4 | F: .

C=CCN1C(=O)C(=O)N(Cc2nc3ccccc3s2)C1=O
  A: 2.9 | B: 11% | C: -2% | D: 0.1 | E: ? | F: .

O=C(O)Cc1cccc(=O)c(O)c1C(=O)O
  A: . | B: 3% | C: 6% | D: -0.2 | E: 3 | F: -4.7%

Cc1ccc(NC(=O)Nc2ccnc(-c3cccnc3)n2)cc1
  A: 4.9 | B: -8% | C: 0% | D: 1.3 | E: 26 | F: -1.2%

COc1ccc(Cn2ccc3nc(C)c(C(=O)N4CCN(c5cc(C)ccc5C)CC4)cc3c2=O)cc1
  A: . | B: . | C: . | D: 1.8 | E: 2 | F: -18%

COCCN(CC(=O)Nc1cccc(C)c1C)C(=O)Cc1ccsc1
  A: . | B: 7% | C: ? | D: 0.0 | E: -5 | F: -3.4%

COc1ccc(/C=C(\NC(=O)c2ccc(C)cc2)C(=O)NCCCn2ccnc2)cc1OC
  A: . | B: 3% | C: -3%[15.4 µM] | D: 0.0 | E: -29 | F: -2.7%

O=c1cc(Cn2ccnc2)c2cc3c(cc2o1)CCC3
  A: -0.9 | B: -1% | C: -59%[inhibitor] | D: -0.2 | E: 47 | F: ?

COc1ccc(S(=O)(=O)NCc2ccc(C(=O)N3CCN(c4ccccn4)CC3)cc2)cc1
  A: 1.7 | B: -15% | C: -20% | D: -0.6 | E: 4 | F: -5.4%

Cc1cccc(N2CCN(C(=O)CCNS(=O)(=O)c3cccs3)CC2C)c1 (stereo unspecified)
  A: 16 | B: 16% | C: 0%[15.4 µM] | D: 0.3 | E: 6 | F: .

Cc1ccc(O)c(C(=O)c2cc(C#N)c(=O)n(-c3nccs3)c2)c1
  A: ? | B: -13% | C: -8%[15.4 µM] | D: 63* | E: -6 | F: .

Cc1cccc(NC(=O)CSCC(=O)Nc2cccc3ncccc23)c1
  A: . | B: 4% | C: -28% | D: 0.4 | E: 1 | F: -6.3%

Cc1cccc(Cl)c1OCCCN1CCOCC1
  A: -13 | B: 6% | C: 4%[15.4 µM] | D: -1.0 | E: 1 | F: -0.5%

O=C(NNS(=O)(=O)c1ccccc1F)c1cc(-c2ccccc2)n[nH]1
  A: -1.2 | B: -6% | C: 1%[15.4 µM] | D: 1.1 | E: -6 | F: .

O=C(COC(=O)/C=C/c1ccccc1)Nc1ccccc1Br
  A: 5.0 | B: 11% | C: -8%[15.4 µM] | D: -0.1 | E: 17 | F: -5.1%

CC(=O)N1CCN(CC(=O)Nc2sccc2C#N)CC1
  A: -2.8 | B: -9% | C: 4%[15.4 µM] | D: 0.4 | E: 0 | F: .

COc1ccc(CCNC(=O)c2nnn(-c3ccc4c(c3)OCCO4)c2N)cc1OC
  A: 4.8 | B: -23% | C: 10% | D: 0.6 | E: -15 | F: -2.3%

O=C(Nc1nc2ccccc2[nH]1)c1cccc(S(=O)(=O)N2CCOCC2)c1
  A: 1.2 | B: 10% | C: -5% | D: -0.3 | E: 16 | F: -27%

O=C1CCc2cc(S(=O)(=O)NCc3ccc(Cl)cc3)cc3c2N1CC3
  A: . | B: 11% | C: -6% | D: 0.4&-0.3 | E: 6&8 | F: -2.2%&0.8%

CCCc1nc2ccccc2c(C(=O)OC(C)C(=O)NCc2ccc3c(c2)OCO3)c1CC (stereo unspecified)
  A: . | B: -3% | C: -18% | D: 5.2 | E: 1 | F: -1.7%

C=CCN(c1ccccc1)S(=O)(=O)c1cccc(C(=O)Nc2ccncc2)c1
  A: . | B: -19% | C: -2%[15.4 µM] | D: 1.5 | E: 19 | F: -43%

CCCCn1c(N)c(N(CC(C)C)C(=O)c2oc3ccc(OCC)cc3c2C)c(=O)[nH]c1=O
  A: . | B: -14% | C: -18%[15.4 µM] | D: 0.3 | E: -10 | F: 1.2%

O=c1c2ccccc2nc(-c2ccccc2)n1CCN1CCOCC1
  A: 0.5 | B: 8% | C: -3% | D: 0.0 | E: 4 | F: -0.4%

O=C1CCc2cc(S(=O)(=O)NC3CCCCC3)cc3c2N1CC3
  A: . | B: 7% | C: 33%[15.4 µM] | D: -1.1 | E: 21 | F: .

COCC(C)NC(=S)Nc1ccccc1[N+](=O)[O-] (stereo unspecified)
  A: -0.5 | B: 3% | C: -11%[15.4 µM] | D: -0.8 | E: -8 | F: -1.0%

CCCc1ccc(OCC(=O)Nc2cc(S(=O)(=O)CC)ccc2O)cc1
  A: 0.6 | B: -6% | C: -14% | D: 0.0 | E: -6 | F: -2.1%

O=C(CSc1nc2ccc(Cl)cc2[nH]1)NCCc1ccc(Cl)cc1
  A: -2.2 | B: -6% | C: ? | D: 0.0 | E: 2 | F: 0.6%

O=C(CSc1ccccc1)NCCCN1CCOCC1
  A: 3.0 | B: 0% | C: -42%[inhibitor] | D: -0.1 | E: -8 | F: -0.8%

Cc1cccc(C(=O)OCC(=O)NCC2CCCO2)c1O (stereo unspecified)
  A: . | B: 8% | C: -50%[inhibitor] | D: -0.2 | E: -6 | F: 0.3%

COC(=O)CNC(=O)c1ccccc1[N+](=O)[O-]
  A: . | B: 8% | C: 8% | D: 0.5 | E: -6 | F: -2.0%

Cc1ccc(S(=O)(=O)N2CCOCC2)cc1NC(=O)CSc1ccc(Cl)cc1
  A: . | B: -3% | C: -42%[inhibitor] | D: 0.1 | E: 15 | F: 1.4%

COc1ccc(S(=O)(=O)N(C)C)cc1NC(=O)C1CCN(c2ncnc3sc(C)c(C)c23)CC1
  A: . | B: -13% | C: -29% | D: 3.4 | E: -5 | F: -5.3%

COc1cccc(C2=NN(C(C)=O)C(c3cccs3)C2)c1 (stereo unspecified)
  A: 0.1 | B: 5% | C: 6%[15.4 µM] | D: -0.9 | E: 3 | F: 0.0%

Cc1ccc(-c2nc3cccc(C)n3c2Nc2ccc3c(c2)OCO3)o1
  A: . | B: . | C: . | D: 0.8 | E: -16 | F: 4.4%

Cn1ncc2c(NCCO)nc(Cl)nc21
  A: . | B: 19% | C: 18%[15.4 µM] | D: 0.0 | E: 7 | F: 0.1%

Cc1c(NS(=O)(=O)c2cc(C(=O)OCC(=O)c3ccccc3F)ccc2Cl)c(=O)n(-c2ccccc2)n1C
  A: . | B: . | C: -63%[inhibitor] | D: -0.9 | E: 5 | F: -1.7%

CC(=O)N1CCc2cc(S(=O)(=O)CCC(=O)NCCc3ccc(C)cc3)ccc21
  A: . | B: -19% | C: 11% | D: 4.2 | E: 18 | F: 0.7%

(cont.)
Codes – A = Menin MLL FP FL; B = gsp antag; C = gsp agonist; D = TRPML1 agonist; E = TRPML1 blocker; F = ClpP mod
Cc1ccc(N2CC(C(=O)Nc3nccs3)CC2=O)cc1 (stereo unspecified)
  A: -2.0 | B: 2% | C: ? | D: 1.6 | E: -24 | F: -0.8%

CC(C)Cn1c(-c2nn(C)cc2Cl)n[nH]c1=S
  A: 0.2 | B: 1% | C: -89%[inhibitor] | D: -1.4 | E: -6 | F: 0.9%

COc1ccc(NS(=O)(=O)NC(=O)c2cn(C)c3ccccc23)cc1
  A: 1.6 | B: 6% | C: -6% | D: -0.5 | E: 6 | F: 1.1%

Cc1ccc(NC(=O)C2CCCN(S(=O)(=O)c3c(C)n[nH]c3C)C2)cc1C (stereo unspecified)
  A: . | B: . | C: . | D: -0.6 | E: -14 | F: -5.3%

COc1ccc(/C=C2\SC(=Nc3ccccc3OC)NC2=O)cc1
  A: 5.8 | B: ? | C: -13% | D: 1.4 | E: -1 | F: 0.8%

Reformatted with tabs: part of the list above.
molecule	Menin MLL FP FL	gsp antag	gsp agonist	TRPML1 agonist	TRPML1 blocker	ClpP mod
Cc1ccc(NC(=O)C2CCCN(S(=O)(=O)c3c(C)n[nH]c3C)C2)cc1C (stereo unspecified)	.	.	.	-0.6	-14	-5.3%
COc1ccc(/C=C2\SC(=Nc3ccccc3OC)NC2=O)cc1	5.8	?	-13%	1.4	-1	0.8%

Compound activity deposited in PubChem BioAssay by National Center for Advancing Translational Sciences (NCATS).
